From PubChem BioAssay
UUG fidelity – modulators of yeast start codon fidelity, primary screen, whole organism, S. cerevisiae, single point, plate reader. S. cerevisiae UUG-firefly luciferase reporter, luminescence/redox ratio. activity score, % at 18.7 µM. hit rate 0.13% among 350,000. AID 602363, 2012;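 active = replicate mean at a twofold rise or more, about +100% in these data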;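 note: firefly luciferase made from a UUG start codon reports start codon fidelity; reporter light over untreated wells divided by growth signal over untreated wells; some hits fall short of that in this replicate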
HIV Env fusion – inhibitors of HIV-1 Env-driven cell-cell fusion, primary screen, HeLa-JRFL effector, CEM21 target cells, luciferase | hit rate 1.1% among 360,000 | inhibition, % at 12.3 µM;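 active = mean replicate inhibition score of at least 50 and every replicate individually at or above 50; inconclusive = only one of the two criteria met; inactive = mean below 50 and not all replicates reaching 50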;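 note: 0% = plate neutral controls and 100% = maraviroc near 300 nM; one replicate is shown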
The depositor's hits bear a star; ? = inconclusive; [ ] = remark or other dose. This is a subset (hit frequency here may not be typical).

The first 2 entries as a preview:
nr	Compound	UUG fidelity	HIV Env fusion
1	CCCC(=O)Nc1ccc2c(c1)OC[C@@H](C)N(S(=O)(=O)c1cn(C)cn1)C[C@H](C)[C@@H](OC)CN(C)C2=O	4	-103[16.7 µM]
2	C[C@H]1CN([C@@H](C)CO)C(=O)c2cc(-c3ccc(F)cc3)cnc2O[C@H]1CN(C)CC1CCCC1	26	-8[16.7 µM]

All compounds of this part (from the top)
nr	Compound	UUG fidelity	HIV Env fusion
1	CCCC(=O)Nc1ccc2c(c1)OC[C@@H](C)N(S(=O)(=O)c1cn(C)cn1)C[C@H](C)[C@@H](OC)CN(C)C2=O	4	-103[16.7 µM]
2	C[C@H]1CN([C@@H](C)CO)C(=O)c2cc(-c3ccc(F)cc3)cnc2O[C@H]1CN(C)CC1CCCC1	26	-8[16.7 µM]
3	N#C[C@@H]1[C@@H](c2ccc(C#CC3(O)CCCC3)cc2)[C@@H](CO)N1C(=O)C1CCC1	4	-5[16.7 µM]
4	CO[C@H]1CN(C)C(=O)c2ccc(NC(=O)NC(C)C)cc2OC[C@@H](C)N(CC2CC2)C[C@H]1C	-1	6[16.7 µM]
5	C[C@@H]1CN([C@@H](C)CO)S(=O)(=O)c2ccc(C#CC3CCCC3)cc2O[C@H]1CN(C)C(=O)C1CC1	13	21[16.7 µM]
6	C[C@H](CO)N1C[C@H](C)[C@H](CN(C)C(=O)Nc2cccc3ccccc23)OCCCC[C@H](C)Oc2ccc(NC(=O)C3CCCCC3)cc2C1=O	-2	-10[16.7 µM]
7	O=S(=O)(N[C@H]1CC[C@H](CCn2cc(-c3cccnc3)nn2)O[C@H]1CO)c1ccccc1	-12	-13[16.7 µM]
8	C[C@@H]1CN([C@@H](C)CO)C(=O)c2cccc(NS(C)(=O)=O)c2O[C@@H]1CN(C)Cc1ccccc1	-6	10[16.7 µM]
9	Cc1ccc(S(=O)(=O)Nc2ccc3c(c2)C(=O)N([C@@H](C)CO)C[C@H](C)[C@@H](CN(C)Cc2ccccc2)OCCCC[C@H](C)O3)cc1	11	49[16.7 µM]
10	COc1ccc(NC(=O)Nc2ccc3c(c2)C(=O)N([C@H](C)CO)C[C@H](C)[C@@H](CN(C)C(=O)Nc2c(C)noc2C)OCCCC[C@H](C)O3)cc1	-11	13[16.7 µM]
11	COc1cccc(S(=O)(=O)N(C)C[C@H]2Oc3ncc(C#CCC(C)C)cc3C(=O)N([C@H](C)CO)C[C@@H]2C)c1	-12	22[16.7 µM]
12	C[C@H](CO)N1C[C@H](C)[C@H](CN(C)S(C)(=O)=O)Oc2ccc(N(C)C)cc2CC1=O	-6	-8[16.7 µM]
13	CC(C)CC#Cc1cnc2c(c1)C(=O)N([C@H](C)CO)C[C@@H](C)[C@H](CN(C)Cc1ccccn1)O2	144*	8[16.7 µM]
14	O=C(NCC[C@H]1CC[C@H](NS(=O)(=O)c2cccc(F)c2)[C@@H](CO)O1)C1CCCCC1	-8	-7[16.7 µM]
15	COc1ccc(S(=O)(=O)Nc2ccc3c(c2)C(=O)N([C@H](C)CO)C[C@H](C)[C@@H](CN(C)C)OCCCC[C@@H](C)O3)cc1	0	12[16.7 µM]
16	O=C(Nc1ccc(Cl)cc1)N[C@H]1CC[C@H](CCn2cc(C3(O)CCCC3)nn2)O[C@H]1CO	-9	5[16.7 µM]
17	C[C@H](CO)N1C[C@H](C)[C@@H](CN(C)C(=O)NC2CCCCC2)OCCCC[C@H](C)Oc2ccc(N(C)C)cc2C1=O	11	7[16.7 µM]
18	C[C@@H]1CN([C@@H](C)CO)S(=O)(=O)c2ccc(-c3cccc(C#N)c3)cc2O[C@H]1CN(C)C	-4	-1[16.7 µM]
19	COCC#Cc1ccc2c(c1)O[C@H](CN(C)C(C)=O)[C@@H](C)CN([C@H](C)CO)S2(=O)=O	18	-17[16.7 µM]
20	COc1cccc(S(=O)(=O)N[C@@H]2C=C[C@H](CC(=O)NCc3ccccc3)O[C@H]2CO)c1	-8	3[16.7 µM]
21	O=C(C[C@@H]1C=C[C@H](NS(=O)(=O)c2ccc(F)cc2)[C@@H](CO)O1)NCc1ccc(Cl)c(Cl)c1	-11	20[16.7 µM]
22	CO[C@H]1CN(C)C(=O)c2cc(NS(=O)(=O)CC(F)(F)F)ccc2OC[C@@H](C)NC[C@H]1C	-9	7[16.7 µM]
23	CC(C)NC(=O)N(C)C[C@H]1Oc2ccc(NC(=O)C3CCCCC3)cc2C(=O)N([C@H](C)CO)C[C@H]1C	-3	15[16.7 µM]
24	CCCNC(=O)N(C)C[C@@H]1Oc2cc(C#C[C@H](C)O)ccc2S(=O)(=O)N([C@H](C)CO)C[C@@H]1C	-9	-7[16.7 µM]
25	C[C@@H]1CN([C@H](C)CO)C(=O)c2cccc(NC(=O)Nc3ccc(F)cc3)c2O[C@H]1CN(C)S(=O)(=O)c1cccs1	12	-14[16.7 µM]
26	C[C@@H]1CN([C@@H](C)CO)C(=O)c2cc(NC(=O)Nc3ccc4c(c3)OCO4)ccc2O[C@@H](C)CCCCO[C@H]1CN(C)Cc1ccc(Cl)c(Cl)c1	6	67*[16.7 µM]
27	C[C@@H]1CCCCO[C@H](CN(C)C)[C@@H](C)CN([C@@H](C)CO)C(=O)c2cc(NS(=O)(=O)c3ccccc3)ccc2O1	38	13[16.7 µM]
28	C[C@H]1CCCCO[C@H](CN(C)Cc2ccc3c(c2)OCO3)[C@@H](C)CN([C@@H](C)CO)C(=O)c2cc(NS(=O)(=O)c3ccc(F)cc3)ccc2O1	22	-17[16.7 µM]
29	COCC#Cc1cnc2c(c1)C(=O)N([C@H](C)CO)C[C@@H](C)[C@H](CN(C)C(=O)CCN1CCCCC1)O2	3	5[16.7 µM]
30	C[C@@H]1CN([C@H](C)CO)C(=O)c2cccc(NC(=O)C3CC3)c2O[C@@H]1CN(C)C	9	13[16.7 µM]

The last four compounds of the part before open the next one:
nr	Compound	UUG fidelity	HIV Env fusion
27	C[C@@H]1CCCCO[C@H](CN(C)C)[C@@H](C)CN([C@@H](C)CO)C(=O)c2cc(NS(=O)(=O)c3ccccc3)ccc2O1	38	13[16.7 µM]
28	C[C@H]1CCCCO[C@H](CN(C)Cc2ccc3c(c2)OCO3)[C@@H](C)CN([C@@H](C)CO)C(=O)c2cc(NS(=O)(=O)c3ccc(F)cc3)ccc2O1	22	-17[16.7 µM]
29	COCC#Cc1cnc2c(c1)C(=O)N([C@H](C)CO)C[C@@H](C)[C@H](CN(C)C(=O)CCN1CCCCC1)O2	3	5[16.7 µM]
30	C[C@@H]1CN([C@H](C)CO)C(=O)c2cccc(NC(=O)C3CC3)c2O[C@@H]1CN(C)C	9	13[16.7 µM]
31	C[C@@H]1CCCCO[C@H](CN(C)Cc2ccccc2)[C@H](C)CN([C@H](C)CO)C(=O)c2cc(NC(=O)Nc3ccc(C(F)(F)F)cc3)ccc2O1	14	?
32	COc1ccc(CN(C)C[C@@H]2OCCCC[C@H](C)Oc3ccc(NC(=O)NC(C)C)cc3C(=O)N([C@@H](C)CO)C[C@@H]2C)cc1	35	-14[16.7 µM]
33	C[C@H](CO)N1C[C@H](C)[C@@H](CN(C)Cc2cccc(F)c2)Oc2cc(C#Cc3ccccn3)ccc2S1(=O)=O	-3	-32[16.7 µM]
34	C[C@@H]1CN([C@H](C)CO)C(=O)c2cc(NS(=O)(=O)c3cccs3)ccc2O[C@H]1CN(C)Cc1ccc(C(=O)O)cc1	-16	-2[16.7 µM]
35	C[C@H]1CN([C@@H](C)CO)C(=O)c2cc(NC(=O)Nc3ccc(C(F)(F)F)cc3)ccc2O[C@H]1CN(C)C(=O)Nc1cccc2ccccc12	-14	-4[16.7 µM]
36	COc1ccc(S(=O)(=O)Nc2ccc3c(c2)C(=O)N([C@H](C)CO)C[C@H](C)[C@H](CN(C)C(=O)NC2CCCCC2)OCCCC[C@H](C)O3)cc1	-12	-190[16.7 µM]
37	CCCN(C)C[C@H]1Oc2ncc(-c3cccc(C#N)c3)cc2C(=O)N([C@H](C)CO)C[C@H]1C	-6	-3[16.7 µM]
38	Cc1noc(C)c1S(=O)(=O)N(C)C[C@H]1Oc2ccc(NC(=O)NC(C)C)cc2CC(=O)N([C@@H](C)CO)C[C@@H]1C	14	42[16.7 µM]
39	COCC#Cc1ccc2c(c1)O[C@@H](CN(C)C(=O)COC)[C@H](C)CN([C@H](C)CO)S2(=O)=O	4	-2[16.7 µM]
40	COC(=O)C[C@H]1C=C[C@@H](NS(=O)(=O)c2ccccc2F)[C@@H](CO)O1	-12	0[16.7 µM]
41	COc1ccc(NC(=O)Nc2cccc3c2O[C@@H](CN(C)S(=O)(=O)c2cn(C)cn2)[C@H](C)CN([C@@H](C)CO)C3=O)cc1	51	-9[16.7 µM]
42	COCC(=O)N1C[C@H](C)[C@@H](OC)CN(C)C(=O)c2cc(NS(C)(=O)=O)ccc2OC[C@@H]1C	-11	4[16.7 µM]
43	Cn1cnc(S(=O)(=O)N[C@@H]2CC[C@@H](CC(=O)N3CCN(c4ccccc4)CC3)O[C@H]2CO)c1	-1	15[16.7 µM]
44	O=C(Nc1ccc2c(c1)OCO2)N[C@@H]1C=C[C@H](CC(=O)N2CCN(c3ccccc3)CC2)O[C@H]1CO	-2	9[16.7 µM]
45	C[C@H]1CN([C@@H](C)CO)C(=O)c2cccc(NS(=O)(=O)c3ccc(Cl)cc3)c2O[C@H]1CN(C)C(=O)Nc1ccc(F)cc1	5	3[16.7 µM]
46	O=C(C[C@@H]1C[C@@H]2c3cc(NS(=O)(=O)c4ccccc4)ccc3O[C@@H]2[C@H](CO)O1)NCC1CC1	-12	0[16.7 µM]
47	Cc1noc(C)c1NC(=O)N(C)C[C@H]1OCCCC[C@@H](C)Oc2ccc(NC(=O)C3CCCCC3)cc2C(=O)N([C@@H](C)CO)C[C@H]1C	-6	-7[16.7 µM]
48	O=C(NCC[C@@H]1CC[C@H](NC(=O)C2CCCCC2)[C@@H](CO)O1)c1cc(Cl)cc(Cl)c1	6	6[16.7 µM]
49	CCCC#Cc1cnc2c(c1)C(=O)N([C@@H](C)CO)C[C@@H](C)[C@H](CN(C)C(=O)C1CCOCC1)O2	-5	-8[16.7 µM]
50	Cc1noc(C)c1S(=O)(=O)Nc1ccc2c(c1)CC(=O)N([C@@H](C)CO)C[C@@H](C)[C@@H](CN(C)C(=O)Nc1ccc3c(c1)OCO3)O2	14	7[16.7 µM]
51	C[C@H](CO)N1C[C@H](C)[C@H](CN(C)C(=O)Nc2ccccc2)Oc2ncc(C#CC3CCCCC3)cc2C1=O	29	4[16.7 µM]
52	C[C@@H]1CN([C@@H](C)CO)S(=O)(=O)c2ccc(/C=C/c3ccccc3)cc2O[C@@H]1CN(C)C(=O)CN1CCOCC1	7	-3[16.7 µM]
53	C[C@H](CO)N1C[C@H](C)[C@H](CN(C)S(=O)(=O)c2ccccc2)Oc2ccc(NC(=O)CCCN(C)C)cc2C1=O	-1	2[16.7 µM]
54	C[C@@H]1CCCCO[C@H](CN(C)C(=O)Nc2ccc(F)cc2)[C@H](C)CN([C@@H](C)CO)C(=O)c2cc(NC(=O)c3ccccc3)ccc2O1	-10	2[16.7 µM]
55	O=C(C[C@H]1CC[C@@H](NC(=O)c2cnccn2)[C@@H](CO)O1)NCc1ccccc1F	11	3[16.7 µM]
56	C[C@@H]1CN([C@H](C)CO)C(=O)c2cc(NC(=O)c3ccccc3)ccc2O[C@@H](C)CCCCO[C@@H]1CN(C)S(=O)(=O)c1ccccc1	-3	-51[16.7 µM]
57	C[C@@H]1CN([C@H](C)CO)C(=O)c2cc(C3=CCCC3)cnc2O[C@H]1CN(C)Cc1cccnc1	-10	-14[16.7 µM]
58	C[C@@H]1CCCCO[C@@H](CN(C)Cc2ccc(C(=O)O)cc2)[C@H](C)CN([C@@H](C)CO)C(=O)c2cc(NC(=O)Nc3ccccc3)ccc2O1	4	-12[16.7 µM]
59	C[C@@H]1CN([C@@H](C)CO)C(=O)CCCn2cc(nn2)CO[C@H]1CN(C)C(=O)Nc1ccc(C(C)(C)C)cc1	19	5
60	Cc1noc(C)c1NC(=O)N(C)C[C@H]1Oc2cc(C#CCC(C)C)ccc2S(=O)(=O)N([C@H](C)CO)C[C@H]1C	10	-34[16.7 µM]

Continuation:
nr	Compound	UUG fidelity	HIV Env fusion
61	CC(C)C(=O)Nc1ccc2c(c1)C(=O)N(C)[C@H]1CC[C@H](CC(=O)NCc3ccccc3F)O[C@H]1CO2	8	-17[16.7 µM]
62	COc1ccccc1-c1ccc2c(c1)O[C@H](CN(C)C(=O)Nc1ccccc1)[C@H](C)CN([C@@H](C)CO)S2(=O)=O	-1	-176[16.7 µM]
63	C[C@H](CO)N1C[C@H](C)[C@H](CN(C)S(=O)(=O)c2ccccc2F)Oc2cc(C#Cc3cccc(F)c3)ccc2S1(=O)=O	-11	0[16.7 µM]
64	COc1ccc(S(=O)(=O)Nc2ccc3c(c2)CC(=O)N([C@H](C)CO)C[C@H](C)[C@@H](CN(C)C(=O)Nc2ccc(C(F)(F)F)cc2)O3)cc1	-4	25[16.7 µM]
65	C[C@@H]1CN([C@H](C)CO)C(=O)c2cc(C#Cc3cccc(F)c3)cnc2O[C@H]1CN(C)C(=O)c1ccccc1F	-18	39[16.7 µM]
66	COCc1cn(CC[C@H]2CC[C@H](NC(=O)Nc3c(C)noc3C)[C@@H](CO)O2)nn1	7	1[16.7 µM]
67	COCC(=O)Nc1ccc2c(c1)[C@H]1C[C@@H](CC(=O)NCc3ccccn3)O[C@H](CO)[C@H]1O2	-19	-7[16.7 µM]
68	C[C@@H]1CCCCO[C@H](CN(C)Cc2ccc(C(=O)O)cc2)[C@H](C)CN([C@@H](C)CO)C(=O)c2cc(NC(=O)C3CCCCC3)ccc2O1	8	-3[16.7 µM]
69	CNC[C@H]1OCCCC[C@@H](C)Oc2ccc(NS(=O)(=O)c3ccccc3)cc2C(=O)N([C@H](C)CO)C[C@@H]1C	-9	2[16.7 µM]
